# AID504770: E. coli YBA685 growth inhibition, screen for V. cholerae RctB inhibitors; E. coli YBA685 rctB-dependent plasmid, OD600 growth, 3 h; stronger effect = lower value; z-score (concentration not given with the values); 0.27% of 130,000 active; AID 504770;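 active means z-score under -2 on both plates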;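 further: wells of about 30 µL received 100 nL stock; score is relative to mean and SD of the test wells; the first replicate is given; strong numbers were not always called active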
# CapD inh: CapD enzyme inhibition. AID 492967. 0.23% of 140,000 active. purified CapD enzyme, fluorescence intensity read-out; stronger effect = lower value; some hits fall short of the stated cut. z-score (no concentration beside the values);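 active means z-score under -4 in either of two replicates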;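 further: stock transfer was 100 nL into about 40 µL; score is relative to mean and spread of the plate; one replicate is shown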
# The depositor's hits bear a star; i = inactive; . = not tested or not shown.
# Second line of a record – AID504770	CapD inh
O=C(O)C1CCC(=O)N(C2CCCCC2)C1c1ccccc1Cl (stereo not drawn)
→ 0.05	0.7
Cc1ccc(N2C(=O)C(=O)/C(=C(/O)c3ccccc3)C2c2ccccc2)cc1 (stereo not drawn)
→ .	-0.46
O=[N+]([O-])c1cccc(-c2cc(C(F)(F)F)n3nc(-c4ccco4)cc3n2)c1
→ .	0.41
COC(=O)c1cc(OCc2c(C)noc2C)cc(C(=O)OC)c1
→ -0.1	.
CS(=O)(=O)c1ccc(Cl)c(NC(=O)CN2CCCSc3ccccc32)c1
→ -0.2	.
CCc1ccc(C2CC(=O)Nc3n[nH]c(-c4ccccc4)c32)cc1 (stereo not drawn)
→ 1.2	-0.025
COc1ccc(CCNC(=O)C23CC4CC(CC(C4)C2)C3)cc1OC
→ -0.6	0.29
CSC1=NCCN1S(=O)(=O)c1ccc(C)cc1
→ .	-0.065
O=C1OCCC1Sc1nc2ccccc2c(=O)n1Cc1ccco1 (stereo not drawn)
→ 0.9	.
Cc1nn(C)c2c(=O)c(=O)c2n(C)[nH]1
→ 0.75	-0.61
O=C1/C(=C\c2cn(-c3ccccc3)nc2-c2cc3ccccc3oc2=O)NC(=S)N1c1ccccc1
→ .	15
COC(=O)c1scc(C)c1-n1cccc1
→ .	0.04
Cc1cc(=O)oc2c(CNC(CC(C)C)C(=O)O)c(O)ccc12 (stereo not drawn)
→ 1.8	38
CCCCN(C)C(=O)CN1C(=O)CC(C)(C)Sc2ccccc21
→ 0.25	-0.74
CCCOc1ccc(/C=C/C(=O)Nc2nccs2)cc1OC
→ 0.1	15

# Exported comma-delimited: entries from further up
SMILES,AID504770,CapD inh
O=C1/C(=C\c2cn(-c3ccccc3)nc2-c2cc3ccccc3oc2=O)NC(=S)N1c1ccccc1,.,15
COC(=O)c1scc(C)c1-n1cccc1,.,0.04

# Later entries:
# Second line of a record – AID504770	CapD inh
COc1cccc(CN2CCC(COC(=O)NCc3ccc(-c4csnn4)cc3)CC2)c1
→ .	0.51
CC(C)c1cc2cc(/C=C/C(=O)O)c(O)cc2o1
→ 0.2	.
CCOC(=O)C1=C(C)NC(SC)=NC1c1ccc(OC)cc1 (stereo not drawn)
→ 0.6	-0.49
Cc1cccc(N2CC(C(=O)Nc3ccc(N4CCOCC4)cc3)CC2=O)c1C (stereo not drawn)
→ -0.7	.
Cc1cc2nc(SCCN3CCCC3)[nH]c2cc1C
→ 0.15	6.8
COC(=O)Nc1ncc(CN2CCCCC2)s1
→ -0.1	-0.32
Cc1ccc(C(=O)N(CC(C)C)CC(C)C)cc1C
→ -0.15	0.045
CCCCn1c(N)cc(=O)[nH]c1=O
→ -1.1	.
Fc1ccc(-c2ccnc3nc(SC/C=C/c4ccccc4)nn23)cc1
→ .	1.7
O=c1cc(CSCc2ccccc2)nc2sccn12
→ 3	-0.33
O=C(Nc1cccs1)Nc1ccccc1N1CCCCC1
→ -0.45	0.075
CC1(C)Cc2c(ccc3ccccc23)C(Sc2ccc(N)cc2)=N1
→ -0.75	9.2
CC(=O)C1=C(O)C(=O)N(c2ccc(O)cc2)C1c1ccc2c(c1)OCO2 (stereo not drawn)
→ .	-0.81
COc1ccc(C(=O)CSc2n[nH]c(-c3ccco3)n2)cc1
→ .	-0.32
Cc1ccc(CC2CC(=O)N(c3ccccn3)C2=O)cc1 (stereo not drawn)
→ 1.8	-0.26

# One compound at a time, as listed above. Screens in order: AID504770	CapD inh
# Fc1ccc(-c2ccnc3nc(SC/C=C/c4ccccc4)nn23)cc1 is entered as .	1.7
# Cc1ccc(CC2CC(=O)N(c3ccccn3)C2=O)cc1 (stereo not drawn) is entered as 1.8	-0.26
# COc1ccc(C(=O)CSc2n[nH]c(-c3ccco3)n2)cc1 is entered as .	-0.32
# CCOC(=O)C1=C(C)NC(SC)=NC1c1ccc(OC)cc1 (stereo not drawn) is entered as 0.6	-0.49
# COc1cccc(CN2CCC(COC(=O)NCc3ccc(-c4csnn4)cc3)CC2)c1 is entered as .	0.51

# (listing goes on)
# Second line of a record – AID504770	CapD inh
COc1cc(OC)cc(C(=O)Nc2nc3ccccc3c3nc4ccccc4n23)c1
→ .	-0.3
OCCCc1nc2ccccc2n1Cc1ccc(Cl)cc1
→ 0.4	0.7
CCCCSc1nc2ccccc2[nH]1
→ -1.1	-0.01
Fc1cc(Br)ccc1N=Cc1ccccn1
→ -0.1	-0.45
CCOC(=O)c1cnn(C(=O)c2snnc2C)c1N
→ 0.05	0.22
CCC(=O)n1nc(-c2ccco2)nc1SCc1ccccc1
→ -1.2	-0.26
O=C(NCc1ccccc1CN1CCOCC1)c1n[nH]c(=O)c2ccccc12
→ -0.2	.
Cc1ccc(NC(=O)COc2nc3nncn3nc2C)cc1
→ 1.6	.
CCOC(=O)c1c(NC(C)=O)sc(Br)c1-c1ccc(C)cc1
→ 1.1	-0.76
CC1(C)C=C(/C=C/c2ccccc2F)NC(=S)N1
→ -0.95	-0.32
COc1ccc(Cl)cc1S(=O)(=O)N1CCCN(S(=O)(=O)c2cc(Cl)ccc2OC)CC1
→ .	-0.11
O=C(N/N=C1\CCc2ccccc21)c1ccc(O)cc1
→ 0	.
Cc1ccc(NC(=O)c2sccc2SCc2ccc(Cl)cc2)cc1
→ .	-0.81
O=c1c(-c2cc3ccccc3o2)coc2cc(O)ccc12
→ 1.4	0.32
O=S(Cc1ccc(Cl)cc1)CC(O)(c1ccccc1)c1ccccc1 (stereo not drawn)
→ .	-0.74
CC1=NN(c2ncnc3sc4c(c23)CCCC4)C(=O)C1
→ 0.05	1.5
Cc1c(N)cc(C(F)(F)F)cc1C(F)(F)F
→ 0.5	0.52
CC(C)CNC(=O)c1cccc(S(=O)(=O)N2CCCC2)c1
→ 0.5	0.21
CN(C)c1ccnc(NCc2ccccc2)c1C#N
→ -0.5	-0.17
Cc1cc(C(F)(F)F)nc2c([N+](=O)[O-])c(C(C)(C)C)nn12
→ .	-0.38
NC(=O)Cn1cc(/C=C2/C(=O)NC(=O)N(C3CCCCC3)C2=O)c2ccccc21
→ 0.2	-0.97
CCC(=O)N1N=C(c2ccc(F)cc2)CC1c1ccc(OC)cc1 (stereo not drawn)
→ 1.8	1.1
CC1C/C(=N\NC(=O)C2COc3ccccc3O2)CC(C)(C)C1 (stereo not drawn)
→ -0.55	.
CCOC(=O)NS(=O)(=O)c1ccc(-c2cc(C(F)(F)F)n(C)n2)s1
→ 0.1	0.24
CC1=C(C#N)C(=O)NC(=O)/C1=C/c1ccc(N(C)C)cc1
→ -0.35	-0.085
O=C(NC1CCCC1)c1ccc2c(c1)C(=O)N(CC1CCCO1)C2=O (stereo not drawn)
→ 0.05	0.36
COc1nc(OC)nc(N2CCCc3cccc(C)c32)n1
→ -0.3	0.39
COc1ccc(S(=O)(=O)N2c3ccccc3OCC2c2ccccc2)cc1 (stereo not drawn)
→ .	0.6
N#CC(C#N)=Cc1ccc(C(F)(F)F)cc1
→ .	-0.055
COc1cccc(N2C=CC(C)(C)NC2=S)c1
→ .	0.74
C/C(=C\C(=O)Nc1ccc(Cl)cc1)NCc1ccco1
→ -3.3	.
CSc1ncc(/C=C2/C(=O)NC(=O)N(C3CCCCC3)C2=O)cn1
→ -0.3	0.26
CCOc1cccc2cc(C(=O)Nc3ccc(OC)c(OC)c3)c(=Nc3ccc(C(=O)O)cc3)oc12
→ .	-0.18
CC1=C(C#Cc2ccccc2)c2ccccc2OC1(NCc1ccccc1)c1ccccc1 (stereo not drawn)
→ .	-0.41
O=C1CNC(=S)N1CCOc1ccccc1Cl
→ 0.65	-0.43
ONc1cccnc1-n1nc(C(F)(F)F)cc1C(F)(F)F
→ 0.6	0.51
Cc1cccc(-c2noc(NC(=O)O/N=C/c3c(Cl)cccc3Cl)n2)c1
→ -0.9	0.4
N#Cc1c(C(F)(F)F)cc(-c2ccccc2)nc1SCC(=O)N1CCOCC1
→ .	7
O=C(CSc1nc2[nH]ncc2c(=O)n1-c1cccc(C(F)(F)F)c1)NCc1cccc(Cl)c1
→ .	-0.23
CCC(=O)Nc1sccc1C(=O)OC
→ 0.35	0.2
CC(C)(C)c1nnc(Nc2ccc3c(c2)OCO3)n(N)c1=O
→ -0.5	-1.2
O=C(Nc1ccc(N2CCOCC2)nc1)c1ccc(C(F)(F)F)cc1
→ .	-0.14
CCOC(=O)C1CCN(C2c3ccccc3-c3ccccc32)CC1
→ 0.05	.
CC12CCC(c3c1noc3C(F)(F)F)C2(C)C (stereo not drawn)
→ 0.1	0.21
N#CC1(C#N)[C@H](c2ccc(F)cc2)[C@@H](C(=O)c2ccccc2)N2c3ccccc3C=C[C@@H]21
→ .	1.2
c1ccc(-c2cnc(-c3ccccc3)o2)cc1
→ -0.45	91
CCOc1ccc(-c2c(C#N)c(N)nc(SCC(=O)c3ccc(Cl)cc3)c2C#N)cc1
→ 0.1	-0.095
CCn1ccc(C(=O)Nc2ccc(Cl)cn2)n1
→ 0.95	-0.12
CC(=O)NCc1nc(-c2ccccc2)no1
→ 0.35	0.21
O=C(CN1C(=O)CSc2ncccc21)NC1CCCC1
→ -0.7	-0.89
CN(CCNC(=O)C1CC(=O)N(C2CCCC2)C1)Cc1ccccc1 (stereo not drawn)
→ -0.8	-0.51
CCC(C)N(C(=O)CSc1nc(NC)c2ccccc2n1)C1CCS(=O)(=O)C1 (stereo not drawn)
→ -0.4	.
O=C(Nc1cc2ccccc2cn1)c1cccc2c1OCCCO2
→ -0.9	3.2
COC(=O)C1=CN(c2ccc(F)cc2)C=C(C(=O)OC)C1c1ccc(OC)c(O)c1
→ 0.35	11
O=C(CSCc1ccccc1)Nc1nnc(Cc2ccccc2)s1
→ 1.4	0.095
O=C(CSC1=NCCS1)NC1Cc2ccccc2C1
→ 1.9	0.17
O=C(Nc1ccc2c(c1)OCCO2)c1ccc2nsnc2c1
→ -0.95	0.14
C=CCNC(=S)N1CCN(CCN=CC2=C(O)CC(c3ccccc3)CC2=O)CC1 (stereo not drawn)
→ 0.5	-0.02
Cc1nnc(Nc2ccc(S(N)(=O)=O)cc2)c2ccccc12
→ -1.2	0.3
N#C/C(=C(\O)c1ccc(C#N)cc1)c1nc2ccccc2s1
→ 0.25	i

# Carrying on.
# Second line of a record – AID504770	CapD inh
COc1ccc(Nc2nc3nonc3n3cnnc23)cc1
→ .	4.9
C=CCOC(=O)c1cc(-c2ccc(C=C3C(=O)NC(=S)NC3=O)o2)ccc1Cl
→ .	0.15
NC(=O)C1CCCN(CC(=O)N(Cc2cccs2)c2ccc3c(c2)OCCO3)C1 (stereo not drawn)
→ 0.15	.
CN(CC(=O)Nc1ccccc1Cl)C1CCS(=O)(=O)C1 (stereo not drawn)
→ -0.1	.
Cc1ccc2cc(CCNC(=O)C3CCCCC3)c(=O)[nH]c2c1
→ -0.8	.
COc1ccc(CNc2nc(-c3cccnc3)nn2C(=O)C2CC2)cc1OC
→ -0.6	.
COC(=O)c1sc(SC)c(C#N)c1-c1ccc(OC)cc1
→ .	1.2
CCOC(=O)c1sc2ncnc(Nc3cc(F)ccc3C)c2c1C
→ .	-0.83
Cn1c(=NC(=O)C2CCCCN2S(=O)(=O)c2cccc3nsnc23)sc2ccccc21 (stereo not drawn)
→ -0.2	.
CN1CCOc2cc(S(=O)(=O)NCc3csc(-c4cccs4)n3)ccc21
→ -0.25	1.8
COC(=O)c1ccc(NC(=O)/C(=C\c2ccco2)NC(=O)c2ccccc2OC)cc1
→ 1.2	-0.16
COc1cc(N)c(Cl)cc1C(=O)O
→ 0.8	-0.12
Nc1nc(COC(=O)c2ccc(S(=O)(=O)C(F)F)cc2)nc(Nc2ccccc2)n1
→ 0.75	.
CC1CC(C)CN(c2cc(=O)n(Cc3ccc(F)cc3)c(=O)[nH]2)C1 (stereo not drawn)
→ -1.1	0.46
Cc1ccc(C(C)C)c(OCC(=O)NCCC23CC4CC(CC(C4)C2)C3)c1
→ -0.15	-0.93
COC(=O)c1sc2ccccc2c1OS(=O)(=O)c1ccc(C)cc1
→ .	0.22
O=C(NCSc1nc2ccccc2s1)C(F)(F)F
→ -0.35	-2.3
c1ccc(CN2CCN(c3ccccc3)CC2)cc1
→ 0.1	0.4
COc1ccc(C(c2nnnn2C2CCCC2)N2CCN(C(=O)c3ccco3)CC2)cc1OC (stereo not drawn)
→ -0.4	.
COC(=O)c1ccc2c(c1)nc(SCC#N)n1c3ccccc3nc21
→ .	0.59
CC(=O)OC1(c2ccccc2)CCN(C)CC1(C)C (stereo not drawn)
→ .	-0.49
COc1ccc(C2Nc3ccccc3C(=O)N2c2ccc(C)cc2)cc1Cn1cc([N+](=O)[O-])cn1 (stereo not drawn)
→ .	1.1
CCOC(=O)/C(N=Nc1ccc(Br)cc1)=C(\C)O
→ .	-2.2
O=c1c2ccccc2nnn1CSc1ccc(F)cc1
→ 0.5	.
CN1CCN(c2nc(-c3ccc(O)cc3O)cs2)CC1
→ 0.35	.
Cc1ccc2c(c1)-c1c(cnn1CC(=O)NCC1CCCO1)CO2 (stereo not drawn)
→ 0.05	0.48
CCC(CC)C(CC(=O)O)N1Cc2ccccc2C1=O (stereo not drawn)
→ -0.55	0.22
COC(=O)C1CSCC/C1=N\Nc1ccc(Cl)cc1Cl (stereo not drawn)
→ 0.2	0.58
CCN1CCc2c(sc(NC(=O)c3ccc(S(=O)(=O)N4CCCC4)cc3)c2C(N)=O)C1
→ -1.7	.
Cc1ccc(N2CCC(=O)N2)cc1
→ 0.05	-0.11
Cc1ccc2nc(NCCCNC(=O)c3cnccn3)c(C#N)cc2c1
→ 0.1	.
CCOc1ccc(S(=O)(=O)N2CCN(C3CC(=O)N(Cc4ccccc4)C3=O)CC2)cc1 (stereo not drawn)
→ -0.45	.
CCOc1ccc(NC(C)C(=O)NC2(C#N)CCCCC2)cc1 (stereo not drawn)
→ 0.2	.
O=C(NNc1nc2c(c(=O)n1Cc1ccccc1)C1(CCCC1)Cc1ccccc1-2)c1ccccc1
→ .	5.2
Cc1nnc(NCCCN2CCOCC2)c2ccccc12
→ -1.7	.

# Screening results: PubChem BioAssay, ICCB-Longwood Screening Facility, Harvard Medical School
